From PubChem
YopH inh: YopH tyrosine phosphatase inhibitors, primary screen, biochemical, fluorescence Ex485/Em525; YopH tyrosine phosphatase [Yersinia enterocolitica]; inhibition, %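 (about 10 µM by stock and volumes)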; 140,000 tested, 0.16% active; AID 898, 2007;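 active = inhibition of 50% or more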;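 also: controls were vehicle for no effect and minimum signal wells for full effect; inactives centre near -20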
Mtb bLac sens: beta-lactam sensitization of Mtb H37Rv, H37Rv. inhibition, % at 25 µM. 330,000 tested, 0.27% active. M. tuberculosis H37Rv growth with meropenem, percent inhibition; hits of this screen are not shown here;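 active = about 74% or more and at least 40 points above the plate without the antibiotic, then above 30% in a dose series; inconclusive = first-round hits that could not be retested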;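 also: growth measured after seven days incubation then overnight dye step; 0% = bacteria only wells and 100% = bacteria with antibiotic; twin plates without the antibiotic show which effects depend on it; some results filed as inactive read as strong as hits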
Arbovirus anti: antivirals against arbovirus infection, primary screen, cell-based, full library, 10K replicate subset | arbovirus infection cell-based antiviral screen | 200,000 tested, 0.37% active | inhibition, % at 10 µM;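 active = inhibition from about 30%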;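 also: bluetongue infection of BSR cells; cell survival read as ATP light after 72 h; 0% = infected wells without compound and 100% = uninfected wells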
Mtb growth: M. tuberculosis H37Rv growth inhibitors, H37Rv strain (AID 1626); M. tuberculosis H37Rv growth inhibition; higher % means a stronger effect; one-dose inhibition, % at 10 µM; IC50 in µM for titrated hits; 220,000 tested, 0.95% active;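 active = confirmed in a dose series; inconclusive = inhibition above 80% but not taken into the dose series; inactive = below 80% or under 30% at every dose of the series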;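 also: bacteria incubated seven days before Alamar blue readout; 0% = bacteria only wells and 100% = bacteria with antibiotic wells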
RecA intein inh: Mtb RecA intein splicing inhibitors, primary screen, biochemical, fluorescence, HTS; cell-free RecA intein splicing; inhibition, %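 (about 9 µM by stock and volumes)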; 290,000 tested, 0.75% active; in the data active = inhibition above about 30%; inconclusive = no clear call, values can overlap the other calls;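 also: 0% = vehicle wells and 100% = reference inhibitor control wells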
Target sequence (P9WHJ3 whole entry, looked up): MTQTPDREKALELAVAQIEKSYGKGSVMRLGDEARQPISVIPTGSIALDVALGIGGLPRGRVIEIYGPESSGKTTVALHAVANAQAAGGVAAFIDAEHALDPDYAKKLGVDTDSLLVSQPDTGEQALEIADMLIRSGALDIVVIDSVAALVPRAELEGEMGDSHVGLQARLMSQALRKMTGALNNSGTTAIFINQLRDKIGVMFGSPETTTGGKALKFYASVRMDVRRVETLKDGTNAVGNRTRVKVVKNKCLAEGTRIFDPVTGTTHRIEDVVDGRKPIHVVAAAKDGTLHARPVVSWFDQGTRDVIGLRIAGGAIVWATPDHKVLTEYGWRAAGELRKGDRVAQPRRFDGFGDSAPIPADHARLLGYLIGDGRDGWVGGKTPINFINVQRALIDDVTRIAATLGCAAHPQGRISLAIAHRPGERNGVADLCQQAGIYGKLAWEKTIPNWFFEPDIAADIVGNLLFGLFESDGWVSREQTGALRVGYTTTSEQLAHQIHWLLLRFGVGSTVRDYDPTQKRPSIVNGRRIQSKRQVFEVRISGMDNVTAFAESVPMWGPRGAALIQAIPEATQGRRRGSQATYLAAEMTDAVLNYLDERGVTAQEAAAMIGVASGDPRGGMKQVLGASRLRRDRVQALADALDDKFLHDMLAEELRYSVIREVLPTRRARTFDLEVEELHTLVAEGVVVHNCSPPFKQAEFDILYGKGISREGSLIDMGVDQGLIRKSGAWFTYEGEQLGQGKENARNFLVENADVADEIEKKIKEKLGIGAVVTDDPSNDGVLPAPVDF
Arbovirus anti repeat: further read-out of Arbovirus anti, marked with its call; inhibition, %; measured here: 10K subset replicate screen; many hits read low in the repeat;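 first of two repeat runs on a subset; 0% = infected and 100% = uninfected wells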
Active calls of the source: *; u = inconclusive; x = no result given; & = joins results of further samples.

SMILES | YopH inh | Mtb bLac sens | Arbovirus anti | Mtb growth | RecA intein inh | others
Cc1cccc(-n2c(O)c(C=Nc3cccc(O)c3)c3ccccc3c2=O)n1 | x | -5 | x | -8% | 2.5
CC(=O)c1ccc(NC(=O)C(C)OC(=O)c2cccc(-n3cnnn3)c2)cc1 (stereo not given) | x | -12 | x | x | 1.0
Cc1ccc(Cn2c(C(=O)NCCCN3CCOCC3)cc3sccc32)cc1 | -17 | 63 | 3 | -7% | 6.5
CCOC(=O)N1CCC(n2c(=S)[nH]c3ccccc3c2=O)CC1 | -16 | 0 | 0 | -3% | 5.4
COC(=O)c1nnn(CC(=O)Nc2cccc(Cl)c2)c1C(=O)OC | -14 | -5 | -1 | -6% | -0.5
O=C(CCc1ccccc1)NC(=S)Nc1cc(C(F)(F)F)ccc1N1CCOCC1 | -27 | -3 | 2 | 4% | 4.2
Cc1nnsc1C(=O)Nc1ccc(S(=O)(=O)N2CCCCC2C)cc1 (stereo not given) | x | 3 | x | x | -0.3
COC(=O)c1cc(-c2c(-c3cc(OC)c(OC)c(OC)c3)noc2C)cc([N+](=O)[O-])c1 | x | -3 | x | x | 3.6
COc1ccc(N(C(C)C(=O)NN=C2CCCCCCC2)S(C)(=O)=O)cc1 (stereo not given) | x | 2 | -1 | -7% | 3.8
CCc1nnc(SCc2cn3c(C)cc(C)nc3n2)n1N | 0 | -9 | 4 | 0% | -3.5
CCOC(=O)C1=C(C)NC(C)=C(C(=O)OCC)C1C | -31 | 6 | -1 | 5%&-1% | -1.0
Cc1ccc(NCC(=O)N/N=C\c2ccc[nH]2)cc1 | x | 0 | x | 0% | 2.2
CC(C)CC(=O)NC(=S)Nc1ccc(NC(=O)c2ccco2)cc1 | -27 | 18 | 8 | 5% | -0.4
Cc1cc(C=O)c(C)n1-c1ccc(Cl)c(C(=O)O)c1 | x | 7 | 5 | 3% | 2.9
Cc1ccc(-c2nc3cc(N)ccc3o2)cc1Br | x | 12 | x | x | -0.2
Cc1ccnc(-n2c(-c3ccco3)nc3ccccc3c2=O)c1 | -33 | 14 | -2 | 13% | 0.4
COc1ccc(OC)c(CC(NC(C)=O)C(=O)NC2CCN(S(=O)(=O)c3ccc(NC(C)=O)cc3)CC2)c1 (stereo not given) | x | 0 | x | x | -1.0
Cc1cccc(NC(=O)N2CCCCCC2)c1 | x | -12 | x | x | -0.1
O=[N+]([O-])c1ccc(Sc2nccn2Cc2ccccc2)cc1 | -26 | 0 | -10 | -5% | 2.5
Cc1ccc(NC(=S)N2CCN(c3ccccn3)CC2)c(C)c1 | x | 3 | 1 | 1% | x
O=C(O)c1ccc(Nc2nc3ccc(Cl)cc3[nH]2)cc1 | x | -2 | x | x | -1.7
Cc1nn(CCC(=O)NNC(=S)Nc2cccc(Cl)c2)c(C)c1[N+](=O)[O-] | -8 | -5 | 3 | -2% | 0.2
CCCS(=O)(=O)N1CCN=C1SCc1cccnc1 | x | 5 | 6 | -1% | 0.1
COC(=O)c1sccc1NC(=O)CN(C)NS(=O)(=O)c1ccc(F)cc1 | -16 | 0 | 1 | -15% | -1.6
COc1ccc(-c2nn(-c3ccccc3)cc2/C=N/O)cc1OC | x | 85 | x | x | -0.1
COc1cc(NC(=O)c2ccc(F)cc2)c(OC)cc1NC(=O)CN1CCOCC1 | x | 20 | -4 | -1% | 2.1
Cc1nnc(NC(=O)C23CC4CC(C)(CC(C)(C4)C2)C3)s1 | x | -5 | x | x | 0.1
O=C(c1cccc(F)c1)N1CCN(c2cc(N3CCCCC3)c(F)cc2[N+](=O)[O-])CC1 | -31 | u | -17 | 25% | 17
Cc1cc(C)n2nnnc2c1C#N | -35 | -5 | 1 | -5% | -3.7
COc1ccc(/C(C)=N/NC2=NCCN2)cc1Cl | x | 8 | x | x | -2.5
CC(=O)c1nnn(-c2ccccc2C#N)c1C | x | -1 | x | -8% | -0.5
CCOc1ccc(C(=O)NCC(=O)N2CCCCCCC2)cc1OCC | x | 2 | x | x | 2.9
O=C(NCc1ccccc1)C(=O)NCC(c1ccco1)N1CCN(c2ccccc2F)CC1 (stereo not given) | x | 1 | -7 | 14% | 0.3
COc1ccc(NC(=O)N2CCC(c3nc(-c4cccs4)no3)CC2)cc1 | 9 | 2 | 7 | x | -0.2
O=[N+]([O-])c1ccc(Cl)c(CN2CCSCC2)c1 | -27 | -5 | -3 | 3% | 0.4
CN(CC(=O)Nc1ccc(N2CCOCC2)cc1)C(=O)c1cn(-c2ccccc2)nc1-c1ccccc1 | x | -9 | x | x | -5.4
CCN(CC)C(=O)Cn1cc(/C=C(\C#N)C(=O)NC2CC2)c2ccccc21 | x | 1 | x | x | 0.2
CC(=O)c1cccc(NC(=O)CCCCCn2nnc3ccccc3c2=O)c1 | x | -6 | x | x | 1.3
COc1cccc(-c2cc3nc(-c4ccccc4)cc(=O)n3[nH]2)c1 | x | 10 | x | x | 0.1
CCCN(CCC)S(=O)(=O)c1ccc(C(=O)N2CCC(=O)c3ccccc32)cc1 | -32 | 3 | 1 | -15% | 3.1 | Arbovirus anti repeat=-1
CCOC(=O)c1c(C)noc1-c1ccco1 | x | -4 | x | -11% | 1.6
O=C(CCCn1c(=O)oc2ccccc21)N1CCN(c2ccccn2)CC1 | x | -1 | x | x | 1.3
O=C(Cn1cc([N+](=O)[O-])cn1)Nc1ccccn1 | -41 | 2 | 0 | -5% | x
CC(=O)Nc1ccc([N+](=O)[O-])c(CS(=O)(=O)c2ccc(C)cc2)c1[N+](=O)[O-] | x | 9 | x | x | -3.0
COc1ccccc1CCNC(=O)c1cnccn1 | -4 | 10 | 1 | -2% | 0.4
CCc1ccc(NC(=O)c2ccc(C3SCC(=O)N3CCc3ccccc3)cc2)cc1 (stereo not given) | -20 | 99 | -25 | x | 1.9
CCOc1ccccc1C(=O)NC(C(=O)Nc1cccc(S(N)(=O)=O)c1)C(C)C (stereo not given) | x | -3 | 5 | 0% | -0.2
CCc1cccc2c(=O)c(C(=O)NCCN3CCOCC3)c[nH]c12 | -19 | 1 | 7 | -6% | -0.1
COc1ccc(-c2cc(C)no2)cc1S(=O)(=O)N(C)c1ccc(C)cc1 | x | 4 | x | x | 2.0
COc1ccc(N(C)C(=O)Cn2c(=O)oc3ccccc32)c(OC)c1 | x | -5 | x | x | 0.4

Among those listed so far, two contain a COOH group:
SMILES | YopH inh | Mtb bLac sens | Arbovirus anti | Mtb growth | RecA intein inh | others
Cc1cc(C=O)c(C)n1-c1ccc(Cl)c(C(=O)O)c1 | x | 7 | 5 | 3% | 2.9
O=C(O)c1ccc(Nc2nc3ccc(Cl)cc3[nH]2)cc1 | x | -2 | x | x | -1.7

The listing continues.
SMILES | YopH inh | Mtb bLac sens | Arbovirus anti | Mtb growth | RecA intein inh | others
O=C(NCc1ccccc1)/C(=C/c1ccccc1)NC(=O)c1ccco1 | x | -7 | x | x | -0.8
CCOc1ccccc1NC(=O)Nc1ccncc1 | x | 3 | x | x | 5.4
CCC(=O)N1CCN(c2ccccc2NC(=O)c2ccc(OC)c(Cl)c2)CC1 | -4 | 20 | -8 | -2% | 1.1
C(=N\Nc1nn[nH]n1)/c1ccccc1 | -37 | 4 | 6 | -6% | 1.9
CCOc1ccc(/C=N/Nc2cc(C)nc(N3CCOCC3)n2)cc1 | x | 38 | x | -2% | -0.6
COc1ccc(/C(O)=C2/C(=O)C(=O)N(c3ncccn3)C2c2ccc(F)cc2)cc1 (stereo not given) | x | 17 | x | -6% | 2.0
Cc1ccc(NC(=O)CSCc2cc(=O)n3cc(C)sc3n2)c(C)c1 | x | 3 | x | x | 1.5
CCOC(=O)c1cnc(Nc2nc3ccccc3o2)nc1CSC(=S)N(CC)CC | -18 | 95 | -5 | -2% | 0.5
CSc1ncc(C(=O)Nc2ccccc2C)c(C)n1 | x | 73 | x | x | -0.8
Cc1[nH][nH]c(=O)c1C(c1c(C)[nH][nH]c1=O)c1cn(C)c2ccccc12 | x | x | -6 | -8% | x
O=C(NC1CCCCC1)OCCN1CCN(Cc2ccccc2)CCC1=O | -25 | -10 | -5 | x | -1.2
CCOc1ccc(NC(=S)N2C3CCCC2CC(NC(=O)C2CC2)C3)cc1 (stereo not given) | x | -3 | x | x | 0.1
NC1=NC[C@@H](Cc2ccc(O)cc2)N1CC1CCCCC1 | x | -9 | x | -1% | 0.2
COc1ccc(C2=NOC(Cn3nc(C(=O)NCc4ccco4)cc3-c3ccccc3)C2)cc1 (stereo not given) | x | 68 | x | x | 6.5
CC1(C)OC(=O)C(=CSc2ccc(C(C)(C)C)cc2)C(=O)O1 | x | -4 | 1 | 2% | 2.6
CSc1ccccc1NC(=O)CN1CCCCC1C (stereo not given) | x | 1 | -10 | 1% | 0.1
Cc1nc2cc(NC(=O)C3COc4ccccc4O3)ccc2s1 (stereo not given) | x | 16 | -8 | 24% | 0.4
COc1ccc(C(=O)n2nc(-c3ccco3)nc2N)cc1OC | x | x | 3 | 4% | -2.0
CN(C(=O)C1CC1)C1CCS(=O)(=O)C1 (stereo not given) | x | -1 | x | x | 0.5
CC1CCCN(c2nc3c(c(=O)n(C)c(=O)n3C)n2CCSc2nc3ccccc3o2)C1 (stereo not given) | -19 | 10 | -3 | -1% | 3.5
Cc1cc(/C=C2\NC(=S)NC2=O)c(C)n1-c1cccnc1 | x | 1 | x | 4% | -5.8
O=C(c1ccco1)N1CCN(C(=O)C2CCCN(S(=O)(=O)Cc3ccccc3)C2)CC1 (stereo not given) | -6 | 2 | -4 | -12% | 2.3
COc1ccc(C(=O)COC(=O)CCN=C2NS(=O)(=O)c3ccccc32)cc1OC | -38 | -15 | 3 | 4% | x
COC(=O)C(CCCCNC(=O)OCc1ccccc1)NC(=O)CN (stereo not given) | -18 | -2 | -2 | -2% | 1.8
CC(=O)Nc1ccc(S(=O)(=O)N2CCN(S(=O)(=O)N3CCCCCC3)CC2)cc1 | -21 | -4 | 5 | 1% | x
COc1ccc(NC(=O)c2ccc3c(=O)n(Cc4ccco4)c(=S)[nH]c3c2)c(OC)c1 | -35 | 74 | 5 | -5% | 0.0
CCOc1ccc(-n2c(C)cc(/C=N\NC(=O)CC(=O)NC3CCCCC3)c2C)cc1 | -28 | 28 | 4 | u | 6.8
Cc1ccc(OCCN(C)C(=O)C2CCC(=O)N(CC3CCCCC3)C2)cc1 (stereo not given) | x | -2 | x | x | 3.0
CC(C)SCC(=O)Nc1ncc2c(n1)-c1ccccc1CC2 | x | 2 | -4 | 1% | -30
CCCC(=O)N(Cc1cc2cc(C)ccc2[nH]c1=O)c1ccccc1OC | -44 | -9 | 12 | -2% | 0.1 | Arbovirus anti repeat=3

The final four compounds of the part above lead into the next.
SMILES | YopH inh | Mtb bLac sens | Arbovirus anti | Mtb growth | RecA intein inh | others
CCOc1ccc(-n2c(C)cc(/C=N\NC(=O)CC(=O)NC3CCCCC3)c2C)cc1 | -28 | 28 | 4 | u | 6.8
Cc1ccc(OCCN(C)C(=O)C2CCC(=O)N(CC3CCCCC3)C2)cc1 (stereo not given) | x | -2 | x | x | 3.0
CC(C)SCC(=O)Nc1ncc2c(n1)-c1ccccc1CC2 | x | 2 | -4 | 1% | -30
CCCC(=O)N(Cc1cc2cc(C)ccc2[nH]c1=O)c1ccccc1OC | -44 | -9 | 12 | -2% | 0.1 | Arbovirus anti repeat=3
COc1ccc(/C=N/NC(=O)c2ccn[nH]2)cc1Cn1nc(C)c([N+](=O)[O-])c1C | x | 1 | x | 2% | 1.4
CCOC(=O)c1c(NC(=O)c2cc(-c3ccc(Cl)s3)nc3ccccc23)sc(C(N)=O)c1C | -16 | -1 | -29 | 2% | -0.4
c1ccc(CCNCc2cccnc2)cc1 | x | -6 | x | x | 1.0
COc1ccc(Cl)cc1N(CC(=O)N1CCCCCC1)S(C)(=O)=O | x | 0 | x | x | -0.5
O=C(CSCc1c(F)cccc1Cl)NCCSCc1ccco1 | x | 3 | -5 | 1% | 3.6
COc1cc(SC)ccc1C(=O)NCCc1ccccc1 | -27 | 6 | -7 | 5% | 3.5
CC12CCC(=O)N1C(C(=O)N1CCN(S(=O)(=O)c3cccc(Cl)c3)CC1)CS2 (stereo not given) | x | 3 | x | x | -2.5
CC(C)COC(=O)Nc1nnc(SCCOc2ccccc2)s1 | 0 | -5 | 13 | -1% | 0.7
CCN(CC)S(=O)(=O)c1cccc(NN=c2c(=O)c3ccccc3c2=O)c1 | x | -4 | x | -8% | 14
Cc1onc(-c2ccccc2)c1C(=O)n1cccn1 | -15 | -4 | 0 | 0% | -1.2
CCC(CC)C(=O)NCCN1CCN(C(=O)C(CC)CC)CC1 | -12 | -13 | 7 | -8% | -0.3

An excerpt; rates above refer to the full screens.
